TsaE inh: qHTS Assay for Inhibitors of YjeE. tRNA threonylcarbamoyladenosine biosynthesis protein TsaE (Escherichia coli (strain …. purified YjeE, fluorescence polarisation of a bound ADP probe. Potency, µM. actives 0.05% (n = 71,000). AID 605, 2007; active = well fitted falling curve; inconclusive = weaker or top-dose-only fall, or a rising curve; inactive = flat or poorly fitted curve;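 note: top concentration of the series not given in the record; excess ADP was the control for the full effect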
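Purified YjeE (10 uM) with BODIPY Texas Red-labeled ADP probe (2 uM); compounds pin-transferred, 15 min at room temperature. Binding inhibition read as decreased fluorescence polarization; ADP titration as control.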
Bst PK mod: Pyruvate Kinase; AID 361, 2006; partly purified Bacillus stearothermophilus pyruvate kinase, luminescence ATP production; ribose 5-phosphate activator present at AC10; actives 1.2% (n = 51,000); Potency, µM; in the data active means potency below about 11 µM; inconclusive means mostly about 12 µM to 25 µM; inactive means weaker than that;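 the screen sought inhibitors and activators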;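 note: potency is the fitted concentration of half-maximal effect; scaled between full activation by ribose 5 phosphate and full inhibition by luteolin; about four in five hits inhibit and the cells do not say which; series up to 57 µM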
Active calls of the source: *; i = inactive; u = inconclusive; x = no result given. Not all compounds are listed (hit frequency here may not be typical).

nr	Structure	Bst PK mod	TsaE inh
1	CC(O)CNc1nc2c(c(=O)n(C)c(=O)n2C)n1C/C=C/c1ccccc1 (centres undefined)	>57	i
2	CCOC(=O)NCc1ccc(S(=O)(=O)Nc2ccccc2C)cc1	>57	i
3	Cc1cc(C(=O)OCC(=O)NC2CCS(=O)(=O)C2)c(C)n1-c1ccccc1 (centres undefined)	>57	i
4	COc1cc(C(=O)NCCc2nc3ccccc3n2C)cc(OC)c1OC	>57	i
5	O=C(NCc1ccc2c(c1)OCO2)c1cc2c(s1)CSC2	x	i
6	Cn1c(=O)n(-c2ccccc2)c(=O)c2c3c(sc21)COC(C)(C)C3	>57	i
7	COc1ccc(S(=O)(=O)N2CCC(C(=O)Nc3nnc(CCN4CCCCC4)s3)CC2)cc1	>57	i
8	C[C@H](CCC(=O)O)[C@H]1CC[C@H]2[C@@H]3[C@H](O)C[C@@H]4C[C@H](O)CC[C@]4(C)[C@H]3C[C@H](O)[C@]12C	x	i
9	COCCNS(=O)(=O)c1cccc2cccnc12	x	i
10	Cn1c(C(C#N)/C(=N\S(=O)(=O)c2cccs2)c2ccccc2)nc2ccccc21 (centres undefined)	>57	i
11	CCN(CC)S(=O)(=O)C1CCS(=O)(=O)C1 (centres undefined)	x	i
12	CCC(c1nnnn1C1CCCCC1)N1CCN(C2CCCC2)CC1 (centres undefined)	>57	i
13	Cc1cnc(CNc2cc(-c3ccc(N(C)C)cc3)ncn2)cn1	x	i
14	Cc1cc(C)n2c(SCC(=O)Nc3cc(C)on3)nnc2n1	>57	i
15	CC(C)NS(=O)(=O)c1ccc(OCC(=O)Nc2ccc3c(c2)OCO3)c(Cl)c1	>57	i
16	CC(C)[C@@H](CC(=O)N[C@@H]1CCCC[C@H]1C(=O)N[C@H](CC(=O)N[C@@H](CCC(=O)O)CC(=O)O)Cc1c[nH]c2ccccc12)NC(=O)C[C@H](Cc1ccccc1)NC(=O)[C@@H]1CNCC[C@H]1N	x	i
17	Nc1nc(COc2ccc3ccccc3c2)cs1	i	i
18	O=C(NC(Cc1ccccc1)C(=O)N1CCN(c2ccccn2)CC1)c1ccco1 (centres undefined)	>57	i
19	O=C1c2ccccc2C(=O)N1C[C@]1(C(=O)O)NCCS1(=O)=O	x	i
20	N#Cc1c(NC(=O)c2ccc(Br)o2)n(-c2ccccc2)c2nc3ccccc3nc12	x	i
21	Cc1cccc(NC(=O)CSc2nnc(-c3ccncc3)n2C)c1	>57	i
22	Cc1ccc(NCCNc2ccc(C)cc2)cc1	>57	i
23	COc1ccccc1NC(=O)CCSc1nnnn1C	>57	i
24	O=C(CCn1c(=O)oc2ccccc21)N1CCN(c2ccccc2Cl)CC1	>57	i
25	Cc1cc(NC(=O)CC23CC4CC(C2)CC(CC(=O)Nc2cc(C)on2)(C4)C3)no1	>57	i

Arranged by length of the SMILES (rising): part of the list above.
nr	Structure	Bst PK mod	TsaE inh
13	Cc1cnc(CNc2cc(-c3ccc(N(C)C)cc3)ncn2)cn1	x	i
4	COc1cc(C(=O)NCCc2nc3ccccc3n2C)cc(OC)c1OC	>57	i
15	CC(C)NS(=O)(=O)c1ccc(OCC(=O)Nc2ccc3c(c2)OCO3)c(Cl)c1	>57	i

(next part)
nr	Structure	Bst PK mod	TsaE inh
26	O=C(NCCCNC(=O)NC1CCCCC1)NC1CCCCC1	>57	i
27	CCOc1ccc(S(=O)(=O)N(CC(=O)O)c2ccccc2)cc1	x	i
28	CCCC(=O)c1cc(F)c(N2CCN(C(=O)OCC)CC2)cc1C	x	i
29	CC(=O)NC1CC2CCCC(C1)N2CC(=O)Nc1ccccc1 (centres undefined)	>57	i
30	O=C(NCc1cccnc1)c1cn(-c2ccccc2)nc1-c1cccs1	u	i
31	O=C(NCCN1CCN(Cc2ccccc2)CC1)C1CC(=O)N(C2CCCC2)C1 (centres undefined)	>57	i
32	COc1ccc(NC(=O)c2c(F)c(F)c(F)c(F)c2F)cc1Cl	>57	i
33	COc1cccc(OCC(=O)Nc2ccccc2C(N)=O)c1	u	i
34	Cc1ccc(S(=O)(=O)CCc2nnc(NC(=O)c3ccccn3)s2)cc1	u	i
35	O=C(OCCCC(=O)N1CCOCC1)c1ccccc1	>57	i
36	COc1ccc(C(=O)COc2ccc(NC(C)=O)cc2)cc1	>57	i
37	CC1=C(/C=C/C(C)=C/C=C/C(C)=C/C(=O)O)C(C)(C)CCC1	>25.6	x
38	CN(C)C=Nc1nonc1-c1ncn[nH]1	>57	i
39	CCOCCCNC(=O)C(c1ccc(C)cc1)N(Cc1ccc2c(c1)OCO2)C(=O)CNC(C)=O (centres undefined)	>57	i
40	Cc1cccc(C(=O)Nc2ncc(CN3CCOCC3)s2)c1	>57	i
41	Clc1ccc(-c2nnc(-c3ccccc3Cl)o2)cc1	x	i
42	COC(=O)CSc1nnc(-c2ccccc2O)n1-c1ccc(C)cc1	>57	i
43	Cc1ccc(S(=O)(=O)Nc2nc3ccccc3nc2NCc2ccco2)cc1	>57	i
44	COc1ccc(S(=O)(=O)N(CCc2ccccc2)CC(=O)O)cc1OC	x	i
45	CCCOc1ccc(N2C(=O)CC(N3CCC(C(=O)OCC)CC3)C2=O)cc1 (centres undefined)	x	i
46	O=C(O)/C=C\C(=O)Nc1cccc2c1-c1ccccc1C2=O	x	i
47	Cc1ccccc1-c1nc(-c2cccnc2)no1	x	i
48	COc1ccc(OCc2nc(N)nc(Nc3cccc(C)c3C)n2)cc1	>57	i
49	O=C1CC(c2ccccc2)n2nc(NC(=O)c3cccnc3)nc2N1 (centres undefined)	>57	i
50	CCCc1oc2c(c(=O)c1CC)C(=O)CC(C)(C)C2	>57	i
51	FC(F)(F)C1CC(c2cccs2)Nc2ncnn21 (centres undefined)	x	i
52	O=C(Cn1cccc1C(=O)c1ccccc1)NCc1ccco1	>57	i
53	COCCOC(=O)C(C#N)c1nc2ccccc2nc1N1CCCC1 (centres undefined)	>57	i
54	CCC(C(=O)NC1CCCC1)N(Cc1ccco1)C(=O)Cn1nnc(-c2ccc(C)cc2)n1 (centres undefined)	>57	i
55	Cc1ccccc1Cn1cc(NC(=O)c2cc(-c3cccs3)on2)cn1	>57	i
56	CS(=O)(=O)N(CC(N)=O)c1ccc2c(c1)OCO2	>57	i
57	Cc1cc2cc(CCNC(=O)c3ccc(Br)o3)c(=O)[nH]c2cc1C	x	i
58	O=C(CSc1ncn(-c2ccccc2)n1)Nc1nc2ccccc2s1	>57	i
59	O=C(c1cc(C(F)(F)F)cc(C(F)(F)F)c1)N1CCC[C@@]2(CCN(c3ccccn3)C2)C1	x	i
60	CN1Cc2c(N)cccc2[C@H](c2ccccc2)C1	x	i
61	c1ccc(-n2nnnc2-n2ccnc2)cc1	x	i
62	COC(=O)c1cc2ccsc2n1CC(=O)N1CCCc2ccccc21	u	i
63	CCOc1cc(CNC(=O)CN2C(=O)c3ccccc3S2(=O)=O)ccc1OC	>57	i
64	CC(O)Cc1nsc(NC(=O)c2ccc(Br)o2)n1 (centres undefined)	>57	i
65	COc1cccc2cc(C(C)N(CCCN3CCOCC3)C(=O)Nc3ccc(Cl)cc3)oc12 (centres undefined)	>57	i
66	O=C(CN(Cc1ccco1)C(=O)CNS(=O)(=O)c1ccccc1)NC1CCCCC1	>57	i
67	Cc1ccc(-n2nnc3c(=O)n(CC(=O)N4CCCC4)cnc32)cc1	>57	i
68	CC(=O)NCC(=O)OCC(=O)c1ccc(C)cc1	x	i
69	COc1ccc(S(=O)(=O)NCC(=O)N(CC(=O)NCC2CCCO2)c2c(C)cccc2C)cc1 (centres undefined)	>57	i
70	Brc1cccc(C2CC(c3ccccc3)n3nnnc3N2)c1 (centres undefined)	>57	i
71	COC(=O)N1CCC2(CC1)CN(c1ccncc1)C2	x	i
72	NC(=O)c1sc2nc(N3CCCCC3)c3c(c2c1N)CCCC3	x	i
73	O=C(C1CCN(c2nnnn2-c2ccccc2)CC1)N1CCN(c2ccccc2)CC1	>57	i
74	CCCCC(=O)Nc1ccc(NC(=O)c2cccnc2)cn1	>57	i
75	CCOc1cc(CNc2ccccc2SC)ccc1O	x	i

Quoted at random: three records from the list
nr	Structure	Bst PK mod	TsaE inh
14	Cc1cc(C)n2c(SCC(=O)Nc3cc(C)on3)nnc2n1	>57	i
42	COC(=O)CSc1nnc(-c2ccccc2O)n1-c1ccc(C)cc1	>57	i
16	CC(C)[C@@H](CC(=O)N[C@@H]1CCCC[C@H]1C(=O)N[C@H](CC(=O)N[C@@H](CCC(=O)O)CC(=O)O)Cc1c[nH]c2ccccc12)NC(=O)C[C@H](Cc1ccccc1)NC(=O)[C@@H]1CNCC[C@H]1N	x	i

Later entries.
nr	Structure	Bst PK mod	TsaE inh
76	Cc1ccc(C)c(N2CCN(CC(=O)Nc3ccc4[nH]c(=O)[nH]c4c3)CC2)c1	x	i
77	Cc1cc(C)cc(NC(=O)C2CCN(c3nccs3)CC2)c1	>57	i
78	CN(C)S(=O)(=O)c1cc(S(=O)(=O)N(C)C)c(Cl)cc1N	x	i
79	CN(C)c1nc(N)nc(-c2nc3ccccc3s2)n1	>57	i
80	CC(=O)Nc1cccc(NC(=O)CSc2nnnn2C(C)C)c1	>57	i
81	Cn1c(=O)[nH]c(=O)c2c1nc(CN1CCN(c3ccccc3F)CC1)n2CC(N)=O	x	i
82	COc1ccc(C(=O)N2CCC3(CC2)CN(c2ccncc2)C3)cc1	x	i
83	COc1ccc(-c2nc(N)ncc2-c2csc(C)n2)c(O)c1	>57	i
84	O=S1(=O)CC(O)C(NCc2ccco2)C1 (centres undefined)	>57	i
85	CCCCCCN(C(=O)CCCCCN1C(=O)NC(c2ccc(C(C)(C)C)cc2)C(C(=O)OCc2ccccc2)=C1C)C(C(=O)NCCCC)c1ccc(OCC(=O)OC)c(C(=O)OC)c1 (centres undefined)	x	i
86	Cc1cc(Nc2c(C)cccc2C)n2nc(C)nc2n1	x	i
87	Cc1cc(C)cc(OCC(O)CN2C(=O)NC(C)(C)C2=O)c1 (centres undefined)	x	i
88	O=C1CC(N2CCN(C/C=C/c3ccccc3)CC2)C(=O)N1CCc1ccccc1 (centres undefined)	x	i
89	c1ccc(Nc2nc3ccccc3n3cnnc23)cc1	x	i
90	Cc1cc(NC(=O)CSc2ncnc3ccccc23)no1	x	i
91	CSc1nnnn1-c1cccc(O)c1	>57	i
92	Cc1ccccc1CS(=O)(=O)Cc1ccc(C(=O)NCCCN2CCCC2=O)o1	>57	i
93	c1ccc(-n2cnc3cc(NCc4ccncc4)ccc32)cc1	x	i
94	CC(=O)N1CCCc2cc(S(=O)(=O)N(CC(C)C)CC(C)C)ccc21	>57	i
95	CCOC(=O)N1CCN(C2CC(=O)N(c3ccccc3)C2=O)CC1 (centres undefined)	x	i
96	Cc1cccc(-c2c3c(=O)n(C)c(=O)n(C)c3c3c(C)cc(C)nn23)c1	>57	i
97	Cc1cc(C)n(CCCNC(=O)c2ccc3c(c2)NC(=O)CS3)n1	>57	i
98	CCOC(=O)N1CCC(NC(=O)CCc2c(C)nc3ncnn3c2C)CC1	>57	i
99	O=C(Cc1cccs1)N1CCN(c2nc(-c3ccc(Cl)cc3)cs2)CC1	x	i
100	Cc1cccc(C)c1NC(=O)CCCSc1nnc(-c2ccco2)o1	>57	i
101	c1ccc(-n2ncc3c(N4CCCC4)ncnc32)cc1	u	x
102	COC(=O)C1CCN(c2cc(=O)n(-c3ccccc3Cl)c(=O)[nH]2)CC1	>57	i
103	COc1ccc(N2C(=O)CC(n3c(CCCCO)nc4ccccc43)C2=O)cc1 (centres undefined)	>57	i
104	CCC1(C(=O)O)NC(c2cc(OC)ccc2O)C2C(=O)N(Cc3ccccc3)C(=O)C21 (centres undefined)	x	i
105	C=CCn1c(COc2cccc3cccnc23)nnc1SCC(=O)O	u	i
106	Cc1cc(C)nc(Nc2nc3ccccc3[nH]2)n1	>57	i
107	CCOC(=O)C1=C(C)NC(=O)NC1c1ccc(Br)s1 (centres undefined)	x	i
108	COc1ccccc1Nc1nc(NCCO)c2ccccc2n1	x	i
109	CCCn1c(=O)c2ccccc2n2c(SCCOc3ccccc3F)nnc12	x	i
110	CCOC(=O)c1ccc(NS(=O)(=O)c2cc(-c3nnnn3C(C)C)ccc2OC)cc1	>57	i
111	CCOc1ccc(-c2nnn(CC(=O)N3CCN(c4ccc(OC)cc4)CC3)n2)cc1OCC	>57	i
112	CCCOc1ccc2c3c(c(=O)oc2c1OCCC)CCC3	x	i
113	O=C1CC(Cc2ccccc2)C(=O)N1Cc1ccco1 (centres undefined)	x	i
114	COc1ccc(C(C(=O)NC2CCCCC2)N2CCC3(CC2)OCCO3)cc1 (centres undefined)	>57	i
115	COC(=O)c1sc(S(=O)(=O)N2CCC(C)CC2)c(C(=O)OC)c1C	>11.4	i
116	COc1ccc(CCNC(=O)CSc2nnc(Cc3csc(N)n3)n2C)cc1OC	>57	i
117	O=C(O)c1cccc(N2C(=O)c3cccnc3C2=O)c1	u	i
118	CN(C)c1nc(-c2cccc(NS(C)(=O)=O)c2)nc2ccccc12	x	i
119	COc1ccc(CCNC2CC(=O)N(CCc3ccc(OC)c(OC)c3)C2=O)cc1OC (centres undefined)	x	i
120	COc1ccc(N2C(=O)CC(Sc3nc(C)c4c(n3)CCCC4)C2=O)cc1 (centres undefined)	>57	i
121	O=C(O)Cn1nc2ccccc2n1	>57	i
122	COC(=O)C1=C(C)NC(C)=C(C(=O)OC)C1c1ccccn1	>57	i
123	O=S(=O)(c1ccc(S(=O)(=O)N(Cc2cccs2)CC2CCCO2)cc1)N1CCCCC1 (centres undefined)	>57	i
124	Cc1ccc(Cl)cc1N1CCN(S(=O)(=O)c2ccc3c(c2)oc(=O)n3C)CC1	>57	i
125	CCOC(=O)CCCNC(=O)CCNC(=O)c1ccc(OCC)cc1	x	i
